# Assay outcomes (PubChem)
# Measles inh = inhibitors of measles virus growth in infected cells | infected Vero cells, GFP fluorescence, 64 h; active compounds read low | z-score (test concentration not listed) | 0.1% of 33,000 active;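 active = z-score under -3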;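 also: score is relative to mean and SD of the compound wells of a plate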
# * marks the source's active call; other numbers are inactive results. This is a subset; rates above refer to the full screens.
SMILES,Measles inh
CCOC(=O)c1c(NC(=O)COc2cc(C)c(Cl)c(C)c2)sc(C(C)=O)c1C,-1.14
CCc1cccc(NS(=O)(=O)c2cccc3cccnc23)c1,-1.08
CCOC(=O)c1c(C2COc3ccccc3O2)csc1NC(=O)c1ccc(OC)cc1 (stereo not drawn),0.19
COc1ccc(NC(=O)c2ccc(NS(=O)(=O)c3c(C)noc3C)cc2)cc1OC,0.34
CCC1Sc2ccccc2N(CC(=O)NCCC2=CCCCC2)C1=O (stereo not drawn),-1.2
Cc1cc(N2CCN(S(=O)(=O)c3ccc(Cl)cc3)CC2)c2ccccc2n1,1.44
Cc1ccc(-c2c(C#N)c(N)nc3c2CCCCCC3)cc1,0.01
COCCCNC(=O)C(=O)NCC1CCCO1 (stereo not drawn),1.14
Cc1cccc(OCCCn2c3ccccc3c3nc4ccccc4nc32)c1,-0.21
COc1cccc(C2C(C(C)=O)C(=O)CC(C)(O)C2C(C)=O)c1 (stereo not drawn),-0.25
CCOC(=O)C1=C(C)NC2=C(C(=O)c3ccccc32)C1c1ccc([N+](=O)[O-])cc1 (stereo not drawn),-0.8
O=C(Cn1cccc([N+](=O)[O-])c1=O)c1ccccc1,-0.22
Cc1cccc(N(CC(N)=O)S(C)(=O)=O)c1C,-0.56
COc1cccc(NC(=O)Nc2ccccc2C(=O)Nc2cccc(OC)c2)c1,-0.82
COc1ccccc1N(CC(=O)NC(C)c1ccccc1)S(C)(=O)=O (stereo not drawn),0.25
COc1cccc(CN2CCC(N3CCN(c4ccccc4OC)CC3)CC2)c1,-1.18
CC1CCN(S(=O)(=O)c2ccc3ncn(CC(=O)N4CCN(c5ccccc5F)CC4)c(=O)c3c2)CC1,1.49
CCCCOC(=O)C1=C(C)NC2=C(C(=O)CC(C)(C)C2)C1c1ccc(C(=O)OC)cc1 (stereo not drawn),-1.19
Cc1ccc(S(=O)(=O)N(CC(O)CN2CCCCC2)c2cccc(C)c2)cc1 (stereo not drawn),-0.34
Cc1ccc(N2C(=O)c3ccc(Oc4ccc(N)cc4)cc3C2=O)c(C)c1,0.17
Cc1nc2nc(SCC(=O)N3CCCC3)nn2c(C)c1Cc1ccccc1Cl,-0.07
CC1(C)CC(O)C(C(O)c2cccc([N+](=O)[O-])c2)C(C)(C)N1 (stereo not drawn),-0.23
CCN(CC)C(=O)c1sc2ncnc(N3CCN(c4ccccc4)CC3)c2c1C,0.25
CC1CCN(CC(=O)N2c3ccccc3C(C)(c3ccccc3)CC2(C)C)CC1 (stereo not drawn),-1.48
O=C(CC1C(=O)N(c2ccc(F)cc2)C(=S)N1Cc1ccc(F)cc1)Nc1ccc(Cl)cc1 (stereo not drawn),0
CCCCc1cc(=O)oc2cc3occ(-c4ccc(OC)cc4)c3cc12,-0.39
CCc1ccccc1Nc1ncnc(N)c1[N+](=O)[O-],1.14
N#Cc1ccc(C(=O)Nc2nc(-c3ccccc3)c(C(=O)c3ccccc3)s2)cc1,-0.04
COc1ccc(NC(=O)c2cnn3c2NC(c2ccc(F)cc2)CC3C(F)(F)F)c(OC)c1 (stereo not drawn),0.03
O=C1NCCCCC1Nc1ccc(N2C(=O)CCCC2=O)cc1[N+](=O)[O-] (stereo not drawn),-1.9
COc1cc(-c2nc3ccccc3c(=O)n2Cc2cccc([N+](=O)[O-])c2)cc(OC)c1OC,2.29
Cc1nn(CC(=O)O)c(C)c1[N+](=O)[O-],-0.78
O=C(Nc1cccc(Cl)c1)c1sc(=S)n2c1[nH]c(=O)c1ccccc12,0.35
COC(=O)C1=C(C)NC2=C(C(=O)CC(c3ccccc3)C2)C1c1ccc(OCc2ccccc2)c(OC)c1 (stereo not drawn),-0.66
CCOC(=O)c1ccc(CN(Cc2ccncc2)S(=O)(=O)c2ccc(C)cc2)cc1,-0.66
Cc1cccc(-n2ccnc2SCC(=O)Nc2cccc(Cl)c2)c1,0.02
Cc1ccc(NC(=O)C2CCCN(S(=O)(=O)c3cccs3)C2)c(C)c1 (stereo not drawn),0.07
COc1ccc(S(=O)(=O)N(CC(=O)Nc2cccc(C(F)(F)F)c2)c2ccc(C)cc2)cc1,-0.47
Cc1ccc(S(=O)(=O)Nc2cc(C(=O)NCc3cccnc3)ccc2N2CCCCC2)cc1,0.04
NC(=O)C1CCN(C2OC(=O)c3ccccc32)CC1 (stereo not drawn),-0.99
CC1CC(C)CN(C(=O)c2ccc(Sc3ccc(Br)cc3)c([N+](=O)[O-])c2)C1 (stereo not drawn),-0.24
O=C(CC1SC(=Nc2ccccc2)N(S(=O)(=O)c2ccccc2)C1=O)Nc1ccccc1 (stereo not drawn),-0.75
CCn1c2ccccc2c2nnc(SCC(=O)Nc3ccc(C(C)=O)cc3)nc21,-0.48
Cn1c2ccccc2c2ccc(CC(=S)N3CCOCC3)cc21,0.05
CC1CCCCN1C(=O)CSc1nnc(-c2ccc(Cl)cc2)o1 (stereo not drawn),1.07
CC(CNC(=O)Nc1ccccc1)CSc1ccc(Cl)cc1 (stereo not drawn),-0.22
CCOC(=O)Cn1c(CN2CCC(C)CC2)nc2c1c(=O)n(C)c(=O)n2C,-0.58
Cc1c(C)c2ccc(OCC(=O)O)c(C)c2oc1=O,-1.34
CS(=O)(=O)c1sc2nc(-c3cccs3)cc(-c3ccccc3)c2c1N,0.34
COc1ccc(C(=O)Nc2cccnc2)cc1[N+](=O)[O-],-0.95
# (continued)
SMILES,Measles inh
CCOc1ccc(NC(=O)C2CC(=O)NC(=Nc3ccc(C)cc3)S2)cc1 (stereo not drawn),-0.51
Cc1nc2nc(SCC(=O)Nc3ccc(Br)cc3)nn2c(C)c1Cc1ccccc1Cl,-0.51
CC(=O)N1N=C(c2ccncc2)OC12CCC(C(C)(C)C)CC2 (stereo not drawn),-0.79
CCCCN(Cc1ccccc1)S(=O)(=O)c1ccc2nc(-c3ccccc3)[nH]c2c1,0.11
CN(C)CCCNC(=O)c1ccc([N+](=O)[O-])cc1,-0.43
CC1(C)Cc2c(c(N3CCOCC3)nc3sc4c(=O)[nH]cnc4c23)CO1,0.67
O=C(C1CCCN(S(=O)(=O)N2CCCC2)C1)N1CCN(c2ccccc2)CC1 (stereo not drawn),0.26
COC(=O)C1C(=O)C2=C(CC1C)NC(C)=C(C(=O)OCc1ccccc1)C2c1ccc2c(c1)OCO2 (stereo not drawn),0.89
COc1ccc(-n2cnc3cc(C(=O)NCCN4CCOCC4)ccc32)cc1,0.93
O=C(CCSCc1ccccc1F)NCc1cccnc1,-1.3
Cc1[nH]nc2c1C(c1cccc3ccccc13)CC(=O)N2 (stereo not drawn),-0.22
Cc1[nH]c2ccc(-c3nnc(SCc4ccccc4)o3)cc2c1C,0
CC(=O)N(CC(O)c1ccccc1)C1CC(=O)N(c2ccc(Br)cc2)C1=O (stereo not drawn),-0.57
Cn1c(=O)c2cc(C(=O)Nc3ccccc3F)sc2c2ccc(Cl)cc21,0.39
Cc1cc(C)nc(NS(=O)(=O)c2ccc(NC(=O)COc3c(C)ccc(C)c3C)cc2)n1,-0.33
CC(=O)Nc1sc2c(c1C(c1cccnc1)N1CCOCC1)CCCC2 (stereo not drawn),-0.26
Cc1nc(=O)c(-c2ccccc2)c(C)n1-c1ccccc1C(=O)O,0.02
S=c1nc(NCc2ccc3c(c2)OCO3)c2ccccc2[nH]1,1
N#Cc1nc(COc2ccc(Cl)cc2)oc1N1CCC(C(N)=O)CC1,-0.07
Fc1ccc2c(c1)CN(c1ccccc1F)CO2,-0.35

# Laid out differently: 2 of the compounds above.
CC(=O)N(CC(O)c1ccccc1)C1CC(=O)N(c2ccc(Br)cc2)C1=O (stereo not drawn)
  Measles inh: -0.57

Cn1c(=O)c2cc(C(=O)Nc3ccccc3F)sc2c2ccc(Cl)cc21
  Measles inh: 0.39

# Further records follow:
SMILES,Measles inh
CC(C)c1ccc(S(=O)(=O)Nc2cc3c4c(oc3c3ccccc23)CC(C)(C)CC4=O)cc1,-0.04
COc1ccc(CCNC(=O)c2oc(=O)c3ccccc3c2-c2ccccc2)cc1OC,0.05
CC1(C)OC(=O)N(CCc2ccccc2)C1(C)O (stereo not drawn),1.25
O=C(Oc1ccccc1)Oc1cc2oc(=O)sc2cc1Br,-0.3
CC1CC(C)(C)NC(=S)N1CC(=O)N1CCc2ccccc2C1 (stereo not drawn),-0.82
O=C(Nc1ccc(Oc2ccccc2)cc1)c1cnc2n(c1=O)CCS2,0.18
Nc1ncnc2c1[nH]c(=S)n2CCOc1ccccc1,-0.58
CCOC(=O)c1cc2c(=O)n3ccccc3nc2n(Cc2ccco2)c1=NC(=O)c1cccc(C(F)(F)F)c1,0.68
Cc1ccc(CN2C(=O)CSc3ccc(C(=O)NC4CCCCCCC4)cc32)cc1,1.17
O=C(CSc1nc2c(c(=O)n1-c1ccc(F)cc1)SCC2)N1CCN(c2ccccc2)CC1,-0.51
Cc1cccc(-n2nc3c(c2NC(=O)COc2ccc(Cl)cc2)CSC3)c1C,1.1
O=C(NCc1n[nH]c(=S)n1-c1cccc(Cl)c1)c1ccc(S(=O)(=O)N2CCCC2)cc1,-0.04
O=C(Nc1ccc(NC(=O)c2ccc([N+](=O)[O-])o2)cc1)c1ccccc1,1.12
CCc1ccc(S(=O)(=O)n2cnc3cc(C)c(C)cc32)cc1,-0.49
CSCCC(NC(=O)C1CCC(C)CC1)C(=O)NC1CCCC(C)C1C (stereo not drawn),0.88
O=S(=O)(c1ccccc1)N1N=C(c2ccccc2)CC1c1ccc(Br)cc1 (stereo not drawn),1.13
CCOc1ccc(N2C(=O)C(N3C(=O)c4ccccc4C3=O)C2c2ccc(N(C)C)cc2)cc1 (stereo not drawn),0.23
O=C(COC(=O)c1ccc2c(c1)C(=O)N(c1ccc([N+](=O)[O-])cc1)C2=O)c1ccccc1,0.42
COc1ccc(NC(=O)c2cc(OC)c(OC)c(OC)c2)cc1Cl,-0.84
CCOc1ccc(C2=Nn3c(nnc3-c3cccc(F)c3)SC2)cc1Cl,-0.04
CCC(C)OC(=O)C1=C(C)NC2=C(C(=O)C(C(=O)OC)C(C)C2)C1c1ccc2c(c1)OCO2 (stereo not drawn),1.15
CC(=O)C1C(c2ccc(Br)cc2)C(C#N)(C#N)C2C=Cc3ccccc3N12 (stereo not drawn),1.95
C=CCn1c(C(Cc2ccccc2)NC(=O)c2cccs2)nc2ccccc21 (stereo not drawn),-0.09
CCCc1ccc(CC(=O)O)cc1,-0.05
O=C(NCCNC(=O)c1ccc([N+](=O)[O-])cc1)c1ccncc1,0.47
CCCOc1cccc(C(=O)Nc2ccc(NC(=O)c3ccco3)cc2)c1,-0.82
Cc1nc2ccc(Br)cc2c(-c2ccccc2)c1C1=NN(C(=O)CCC(=O)O)C(c2ccccc2Cl)C1 (stereo not drawn),0.27
CCOc1cc(C2C(C(=O)OCCc3ccccc3)=C(C)NC3=C2C(=O)CCC3)cc(Br)c1O (stereo not drawn),-1.86
CCc1ccc(C2=CC(c3cc(OC)ccc3OC)n3nnnc3N2)cc1 (stereo not drawn),-0.31
O=C(NCCCNc1ccc([N+](=O)[O-])cc1C(F)(F)F)c1ccco1,1.21
O=C1c2ccccc2-c2nc(-c3ccccc3)cc3cccc1c23,0.4
O=C(NC1CCCC1)c1ccc(Cn2c(=O)c3ccccc3n(Cc3ccc(F)cc3)c2=O)cc1,0.34
CCc1ccc(C2Nc3ccc(Br)cc3-c3nnc(SC)nc3O2)cc1 (stereo not drawn),0.65
O=C(Nc1ccccc1Oc1ccccc1)c1ccc(S(=O)(=O)N2CCOCC2)cc1,-0.78
CCOc1ccc(/C(O)=C2\C(=O)C(=O)N(c3nnc(C)s3)C2c2ccc(C(C)C)cc2)cc1 (stereo not drawn),1.27
CC1CCN(S(=O)(=O)c2ccc3c(c2)C(=O)c2cc(S(=O)(=O)N4CCC(C)CC4)ccc2-3)CC1,0.83
CCOCCOC(=O)C1=C(C)NC2=C(C(=O)CCC2)C1c1cccc(Cl)c1 (stereo not drawn),-0.77
CCN(C(=O)c1ccc(N2C(=O)C3C4C=CC(C4)C3C2=O)cc1)c1ccccc1 (stereo not drawn),0.05
COc1ccc(C2Nc3ccccc3C(=O)N2c2ccc(Cl)cc2)c(OC)c1 (stereo not drawn),0.79
COc1ccc(S(=O)(=O)NCCC(C)C)c2cccnc12,0.84
CC(C)c1ccc(C(=O)N2CCCN(C(=O)c3ccc(C(C)C)cc3)CC2)cc1,0.26
COc1cccc(NC(=O)CSc2nnc(COc3ccc4c(c3)CCCC4)o2)c1,-0.58
O=C(c1ccco1)N1N=C(C2CCCCC2)CC1(O)C(F)(F)F (stereo not drawn),0.65
CCOC(=O)c1c(NC(=O)c2cccc(F)c2)sc(C(=O)NC2CCCCC2)c1C,0.05
CCOCCn1c(CO)nc2ccccc21,0.15
Clc1ccccc1N1N=C(C=Cc2cccs2)CC1c1cccs1 (stereo not drawn),-0.85
Cc1ccc(NC(=O)C2CC(=O)NC(Nc3nc4ccccc4s3)=N2)cc1 (stereo not drawn),0.21

# Molecules listed so far containing fluorine:
SMILES,Measles inh
CC1CCN(S(=O)(=O)c2ccc3ncn(CC(=O)N4CCN(c5ccccc5F)CC4)c(=O)c3c2)CC1,1.49
O=C(CC1C(=O)N(c2ccc(F)cc2)C(=S)N1Cc1ccc(F)cc1)Nc1ccc(Cl)cc1 (stereo not drawn),0
COc1ccc(NC(=O)c2cnn3c2NC(c2ccc(F)cc2)CC3C(F)(F)F)c(OC)c1 (stereo not drawn),0.03
COc1ccc(S(=O)(=O)N(CC(=O)Nc2cccc(C(F)(F)F)c2)c2ccc(C)cc2)cc1,-0.47
O=C(CCSCc1ccccc1F)NCc1cccnc1,-1.3
Cn1c(=O)c2cc(C(=O)Nc3ccccc3F)sc2c2ccc(Cl)cc21,0.39
Fc1ccc2c(c1)CN(c1ccccc1F)CO2,-0.35
CCOC(=O)c1cc2c(=O)n3ccccc3nc2n(Cc2ccco2)c1=NC(=O)c1cccc(C(F)(F)F)c1,0.68
O=C(CSc1nc2c(c(=O)n1-c1ccc(F)cc1)SCC2)N1CCN(c2ccccc2)CC1,-0.51
CCOc1ccc(C2=Nn3c(nnc3-c3cccc(F)c3)SC2)cc1Cl,-0.04
O=C(NCCCNc1ccc([N+](=O)[O-])cc1C(F)(F)F)c1ccco1,1.21
O=C(NC1CCCC1)c1ccc(Cn2c(=O)c3ccccc3n(Cc3ccc(F)cc3)c2=O)cc1,0.34
O=C(c1ccco1)N1N=C(C2CCCCC2)CC1(O)C(F)(F)F (stereo not drawn),0.65
CCOC(=O)c1c(NC(=O)c2cccc(F)c2)sc(C(=O)NC2CCCCC2)c1C,0.05
